From PubChem BioAssay
ClpP mod – qHTS Assay for Activators of ClpP; ATP-dependent Clp protease proteolytic subunit (Bacillus subtilis (strain 168)), P80244; purified B. subtilis ClpP, FRET peptide cleavage, 20 min; Potency, µM (highest dose often 57.5 µM), without a hit: top-dose activity change, negative = active; actives 1.9% (n = 340,000); AID 651965, 2013; active = well fitted falling curve with a large enough effect; inconclusive = small, poorly fitted or top-dose-only effect; inactive = no such curve, though single readings can be large or run the other way; note: potency is the fitted concentration of half-maximal effect; the source files actives as falling curves though it sought activators and does not explain the sign; nearly all actives have a fitted effect of over 65% in size; many hits overshoot -100%
Target sequence (P80244 whole entry, looked up): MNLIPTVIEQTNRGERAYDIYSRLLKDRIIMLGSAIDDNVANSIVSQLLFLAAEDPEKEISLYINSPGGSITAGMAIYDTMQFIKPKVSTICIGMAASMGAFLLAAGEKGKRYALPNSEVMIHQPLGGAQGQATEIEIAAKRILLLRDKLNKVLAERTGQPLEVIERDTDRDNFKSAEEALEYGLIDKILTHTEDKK
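FRET quenching reversal measured ClpP activation: 10 microg/mL B. subtilis ClpP at pH 8 with the FRET-FV decapeptide, read at 430 nm after 320 nm excitation. The 20-min minus 0-min signal was scaled between DMSO/no-enzyme wells and ADEP (5.8 microM final).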
D2 agonist – activates the human D2 dopamine receptor; P14416; DiscoveRx PathHunter D2 beta-arrestin, luminescence, 90 min; 100% = 57 uM dopamine signal; activation, % (no concentration beside the values); actives 0.084% (n = 360,000); AID 624465; in the data active = activation above about 40%; inconclusive = about 15% to 40%; inactive = below about 15%; note: compound concentration not given in the record; the text of the record calls up to 30% inactive
Target sequence (P14416 whole entry, looked up): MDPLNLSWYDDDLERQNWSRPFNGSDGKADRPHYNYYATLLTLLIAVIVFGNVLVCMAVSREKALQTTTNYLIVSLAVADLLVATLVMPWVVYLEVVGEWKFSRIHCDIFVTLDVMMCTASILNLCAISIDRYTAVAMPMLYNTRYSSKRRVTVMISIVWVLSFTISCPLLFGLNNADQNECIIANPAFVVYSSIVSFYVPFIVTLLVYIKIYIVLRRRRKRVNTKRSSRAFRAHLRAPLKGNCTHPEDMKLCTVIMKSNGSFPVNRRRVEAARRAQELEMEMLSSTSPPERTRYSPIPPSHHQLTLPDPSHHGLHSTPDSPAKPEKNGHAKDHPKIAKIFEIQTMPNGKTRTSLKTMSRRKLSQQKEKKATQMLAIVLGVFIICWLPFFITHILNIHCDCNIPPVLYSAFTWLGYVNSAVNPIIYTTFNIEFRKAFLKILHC
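DiscoveRx PathHunter D2 beta-arrestin cells (2,100/well) attached overnight, then compound-stimulated 90 min at 37 C in HBSS/10 mM HEPES/0.1% Tween-20 buffer; beta-galactosidase complementation read by luminescence after 1 h at ambient temperature. Dopamine 57 uM final (EC100) as control.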
gsp agonist – activates gsp, the McCune-Albright syndrome mutation; actives 0.13% (n = 340,000); gsp mutant cells, cAMP HTRF, 30 min; control for the full effect not named in the record; Potency, µM (doses to about 76.9 µM), without a hit: top-dose activation (cAMP increase), usual class: activators; AID 624287; active = well fitted activation curve with a large enough effect; inconclusive = small, poorly fitted or top-dose-only effect, or another doubt; inactive = no such curve, though single readings can be large or run the other way; cell line not stated here;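 note: phosphodiesterase inhibitor Ro 20-1724 added with compounds to block cAMP breakdown; potency is the fitted concentration of half-maximal effect; nearly all actives have a fitted effect of over 60% in size; about a fifth of the inactives were tested at one dose only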
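Cells in DMEM/10% FBS with G418 were pretreated with compounds in DMSO plus […] (300 uM stock) for 30 min at 37C. cAMP was measured by HTRF (cAMP-d2 plus anti-cAMP antibody-K) after 30 min at room temperature.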
gsp antag – gsp mutant antagonism. Potency, µM (series often up to 76.9 µM), inactives show top-dose activity change, negative = inhibition, most hits filed as inhibitors. AID 624288. actives 0.4% (n = 340,000). gsp-mutant cells, cAMP HTRF, 30 min; control for the full effect not named in the record; active = falling curve of any shape with a large fitted effect; inconclusive = falling curve, mostly with a smaller effect; inactive = flat or rising curve; cell line not stated here;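 note: intracellular cAMP measured with PDE inhibitor Ro 20-1724 present during compound exposure; potency is the fitted concentration of half-maximal effect; % is set by controls: 0 for no effect and ±100 for the full control effect; nearly all actives have a fitted effect of over 65% in size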
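Cells, 2000/well, grown 16–24 h in DMEM 10% FBS with 0.5 mg/ml G418, then compounds plus […] (300 uM addition stock), 30 min at 37C. cAMP read by HTRF (cAMP-d2 and anti-cAMP antibody-K in lysis buffer) after 30 min RT.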
Menin-MLL FL inh – menin-MLL binding inhibition, fluorescein peptide. Fluorescence polarization, fluorescein-MLL peptide displacement from menin. FP activity change, % at 61.4 µM. 290,000 tested, under 10 active. AID 1766; inconclusive = falling polarisation curve, or a change in total fluorescence; inactive = total fluorescence flat and polarisation flat or rising; no compound was filed as active; the % refers to the polarisation; negative = inhibition;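 note: % of control where 0% means no effect; inhibitors lower the polarisation; unlabelled MLL peptide was the positive control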
PINK1 expr mod – modulators of PINK1 expression | PINK1 immunofluorescence, high-content cytometry, 24 h | Potency, µM (doses to about 76.6 µM), inactives show top-dose activation (PINK1 increase), actives largely listed as activators | actives 0.2% (n = 410,000) | AID 624263; active = well fitted activation curve with a large enough effect; inconclusive = small, poorly fitted or top-dose-only effect; inactive = flat fitted curve, though single readings scatter; cell line not stated here;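 note: potency is the fitted concentration of half-maximal effect; % of control where 0% means no effect; nearly all actives have a fitted effect of over 65% in size; a mitochondrial uncoupler was the plate control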
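Measures PINK1 amount and localization on or inside mitochondria by immunofluorescence. Stable cells get compounds at 5 concentrations for 24 hours before fixation and staining; CCCP controls included.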
Sfp inh – inhibitors of Bacillus subtilis Sfp phosphopantetheinyl transferase; Biochemical Sfp PPTase activity, qHTS; actives 3.5% (n = 310,000); Q9F4F7; Potency, µM, without a hit: max response, negative = inhibition, usual class: inhibitors; AID 1490; active = well fitted inhibition curve with a large enough effect; inconclusive = small, poorly fitted or top-dose-only effect, or another doubt; inactive = no such curve, though single readings can be large or run the other way;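 note: the enzyme is Sfp with the accession as filed and its product quenches rhodamine fluorescence; potency is the fitted concentration of half-maximal effect; 0% = enzyme reaction without inhibitor and -100% = no enzyme wells; top concentration of the series not given in the record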
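Sfp 15 nM + cpd, 15 min RT; start w/ rhodamine-CoA 5 uM, BHQ-2-YbbR 12.5 uM (final); 50 mM Hepes pH 7.6, 10 mM MgCl2, 0.01% NP-40, 0.01% BSA; read 525/598 nm at 0 and 30 min.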
* = called active by the depositor; ? = inconclusive; . = not tested or not shown; & = joins results of further samples; [ ] = dose if it differs, or a comment.

SMILES	ClpP mod	D2 agonist	gsp agonist	gsp antag	Menin-MLL FL inh	PINK1 expr mod	Sfp inh
Cc1ccc(OCCNC(=O)/C=C/c2ccc([N+](=O)[O-])cc2)cc1C	2.2%	-1.1	1.3%	?	5.2	9.6%	-5.3%
COc1ccc(CNC(=O)CCCn2nc(C)n3c(cc4sccc43)c2=O)cc1	-9.3%&-1.1%	-4.6	?	?	.	-0.2%&-0.3%	7.8%
CSc1nc(Cc2ccc(Cl)cc2)nc2ccccc12	-10.1%	-2.9	?	-15.2%	-1.6	5.9%	-11.1%
COc1ccccc1/C=C/C(=O)OCCCN(C)C	.	-4.4	-0.5%[15.4 µM]	-9.1%	-3.9	-0.4%	1.9%
Cc1nc(NC(=O)COc2ccccc2)sc1C(=O)Nc1cccc(Cl)c1	-1.6%	-1.6	-2.1%	-10.7%	-0.7	-4.1%	13.7%
NC(=O)CCC(NC(=S)Nc1ccccc1)C(=O)O (stereo not drawn)	0.3%	-3.1	28.1%	8.2%	0.3	3.7%	-13.0%
Cc1cccc(CCNC(=O)CCc2nnc(CCc3ccccc3)o2)n1	-1.1%	-3.5	29.4%	3.0%	-5.7	-0.7%	16.6%
NS(=O)(=O)c1ccc(CCNC(=O)CNC(=O)c2ccc(Br)o2)cc1	-2.5%	-3.4	-57.0%[inhibitor]	12.5%	.	-1.3%	.
Cc1cc(C)nc(SCc2csc(N)n2)n1	52.5%	-0.1	36.6%	-4.9%	4.2	0.2%	35.5µM*
O=C(CN(Cc1ccccc1)S(=O)(=O)c1ccc(F)cc1)NCc1cccnc1	-2.7%	-1.7	2.0%	-5.6%	-1.5	0.9%	-3.4%
Cc1cc(C)c(S(=O)(=O)NCc2ccccn2)c(C)c1	.	-1.5	-53.8%[inhibitor]	4.8%	-5.2	0.4%	10.4%
Cc1ccc2c(c1)C(=C(C#N)C#N)CCN2	7.4%	4.0	-13.7%	1.0%	.	3.3%	.
C=CC[C@H](CC(=O)OC(C)(C)C)C(=O)OC[C@H]1CCCN1C(=O)[C@H](CC=C)CC(=O)NCCO	-1.4%	-0.4	.	0.2%	.	-1.1%	.
c1ccc(-c2cnnn2-c2ccccc2)cc1	0.7%	0.8	-2.7%[15.4 µM]	15.8%	3.0	-1.2%	12.5%
COC(=O)CSCC(=O)Nc1cc2c(cc1C(C)=O)OCO2	-19.6%	-2.3	?	-5.5%	-1.9	-1.5%	-19.8%
Cc1ccc(S(=O)(=O)N2[C@@H](c3ccccc3)C(C(=O)O)=CC[C@H]2c2cccc(C)c2)cc1	-0.9%	-1.1	25.0%	-9.6%	.	-0.2%	.
CC(C)N(Cc1nc(-c2ccccc2)no1)C(=O)c1ccc(Cl)cc1	-2.1%	-7.6	-14.7%	-1.5%	-1.7	0.9%	0.0%
O=C(Nc1ccccc1)Nc1ccc(Cl)c(S(=O)(=O)N2CCOCC2)c1	.	1.6	13.7%	-15.2%	-4.8	?	-3.7%
COc1cccc2c1nc(C)c1cc(C)oc12	28.2µM*	-5.4	5.5%	11.2%	2.7	-0.9%	-4.8%
CCC1=NN2C(=N)/C(=C\c3ccc(OCCOc4ccc(NC(C)=O)cc4)cc3)C(=O)N=C2S1	.	0.2	?	-5.5%	6.8	-2.1%	7.4%
CCN(C(=O)COC(=O)c1cc(-c2ccc(C)o2)nc2ccccc12)C1CCS(=O)(=O)C1 (stereo not drawn)	.	-0.7	21.2%[15.4 µM]	-18.2%	2.9	2.6%	20µM*
O=C(O)c1ccccc1C(=O)N1CCN(c2ccccc2)CC1	0.5%	1.4	-0.9%	13.0%	0.3	-1.6%	?
COc1ccc(C(=O)Nc2oc(-c3ccccc3)c(-c3ccccc3)c2C#N)cc1	?	-1.2	25.6%	19.3%	-0.7	1.2%	8.1%
COc1cc([N+](=O)[O-])ccc1NC(=O)CSc1n[nH]c(C(C)C)n1	.	-1.6	3.1%[15.4 µM]	3.9%	0.0	0.9%	11.8%
Oc1ccc(-c2c(-c3ccsc3)sc3ccccc23)cc1	-15.5%	-2.7	-1.9%	-11.5%	4.6	1.1%	18.1%
Cc1cc(C)cc(OCC(O)CN2CCN(Cc3ccc4c(c3)OCO4)CC2)c1 (stereo not drawn)	.	2.3	19.4%	6.9%	5.8	-1.3%	?
COc1ccc(S(=O)(=O)NC2CCc3ccccc32)cc1OC (stereo not drawn)	0.1%	6.0	-10.0%	3.7%	2.6	-0.5%	12.0%
Cn1c(=O)oc2cc(S(=O)(=O)NCCC(=O)N3CCN(c4ccccc4)CC3)ccc21	0.0%	-4.4	27.5%	-2.2%	.	1.2%	3.8%
COc1ccc(C(NC(=O)c2cccnc2)c2cc(Cl)c3cccnc3c2O)cc1OC (stereo not drawn)	0.7%	-10.6	-20.0%	-3.6%	?	3.4%	-0.9%
CCOC(=O)c1ccc(NC(=O)C2=C(C)Nc3nc(CCCO)nn3C2c2ccc(OC)cc2)cc1 (stereo not drawn)	-7.2%&-8.2%	1.5	7.8%	-9.2%	8.2	1.6%&-1.3%	14.3%
Cc1nc(C)c(CC(=O)N/N=C/c2ccc(O)cc2)c(=O)[nH]1	-12.2%	-1.5	-0.1%	-16.4%	?	-0.8%	12.8%
CC(C)CN1CCC(=O)N([C@H](COc2ccccc2)c2ccccc2)CC1	0.7%&-0.4%	-0.6	6.3%	5.5%	0.0	2.7%	12.6%
COc1ccc(C2=NOC(C(=O)Nc3cc(C)on3)C2)cc1 (stereo not drawn)	0.9%	1.2	-7.1%	-3.3%	1.5	1.4%	14.5%
COC(=O)C(NC(=O)c1ccco1)(Nc1ccc(Br)cn1)C(F)(F)F (stereo not drawn)	1.1%	2.9	-22.1%	2.1%	1.2	0.8%	19.7%
Cc1ccc(Cn2nnc3c(=O)[nH]c(C4CCN(C(=O)Cc5cccs5)CC4)nc32)cc1	1.1%	-1.6	-1.3%	17.2%	1.3	1.9%[38.3 µM]	-17.3%
CC(=O)c1ccc(NC(=O)[C@@H]2CCCN2C2=NS(=O)(=O)c3ccccc32)cc1	-1.0%	1.1	5.4%	18.7%	.	12.0%	.
Cc1[nH]c(=O)[nH]c(=O)c1CSCC(=O)OCC(=O)Nc1ccccn1	.	-1.9	2.7%	10.4%	-26.4	0.4%	14.4%
CCCCCOC(=O)Nc1nnc(CCCCC)s1	0.3%	4.0	-46.8%[inhibitor]	12.0%	-2.4	6.2%	7.3%
Cc1ccc(S(=O)(=O)Cn2nnnc2C(C)N2CCN(C(=O)c3ccco3)CC2)cc1 (stereo not drawn)	0.9%	2.4	-7.6%	-5.9%	-0.6	.	1.6%
CCCOP(=O)(c1ccc(N(C)C)cc1)C(O)c1ccc(N(C)C)cc1 (stereo not drawn)	.	-3.5	35.1%	-1.9%	-2.4	2.8%	9.9%
O=C(C1CC(=O)N(c2ccccc2)C1)N1CCC(c2nc3ccccc3[nH]2)CC1 (stereo not drawn)	0.5%	-1.9	2.8%[15.4 µM]	1.7%	.	-1.0%	.
O=C(Cc1ccccc1)NC(=S)Nc1ccc2oc(-c3ccccc3F)nc2c1	4.3%	-3.7	11.1%	1.7%	6.5	0.3%	6.8%
COc1ccc2[nH]c(C(=O)N3CCN(Cc4ccccc4)CC3)cc2c1OC	.	0.4	-3.7%	2.2%	-7.1	-0.6%	5.8%
COCc1nnc(NC(=O)CC(C)C)s1	0.8%	-3.3	21.8%	-4.4%	0.9	-1.2%	18.6%
NC(=O)C(CC(=O)O)NC(=O)[C@@H]1CCOc2c(I)cc([N+](=O)[O-])cc2C(=O)N[C@@H](CO)C(=O)N[C@@H](Cc2ccc(O)cc2)C(=O)N1 (stereo partly drawn)	-2.7%	-1.2	.	2.2%	-3.2	0.1%	?
O=C(NCc1ccccc1)C(c1ccco1)N(C(=O)c1cnccn1)c1ccc(F)cc1 (stereo not drawn)	0.9%	-3.1	14.2%	3.1%	3.5	-0.3%	1.4%
CCC(=O)Nc1cccc(-c2nc3ccccc3o2)c1	?	-3.2	-32.8%[inhibitor]	-27.3%	1.7	3.1%	-2.4%
COc1cc(C2/C(=C(/O)c3ccc(F)cc3)C(=O)C(=O)N2CCCC(=O)O)ccc1O (stereo not drawn)	-1.4%	-3.4	-19.7%	15.1%	6.5	-1.7%	18.6%
O=C(c1ccc([N+](=O)[O-])cc1)N(c1ccccn1)c1ccccn1	1.7%	0.7	-14.6%[15.4 µM]	15.5%	-0.4	6.1%	-14.6%
COc1ccc2c(c1)CC(N1CCN(C)CC1)c1cc(OC)ccc1S2 (stereo not drawn)	.	-6.0	-10.9%	13.6%	.	-2.0%	.
(listing goes on)
SMILES	ClpP mod	D2 agonist	gsp agonist	gsp antag	Menin-MLL FL inh	PINK1 expr mod	Sfp inh
CCS(=O)(=O)C1=NN2C(=N)/C(=C\c3ccc(SCc4ccco4)o3)C(=O)N=C2S1	-1.9%	-0.7	-21.6%	-14.6%	?	0.9%	20µM*
CN(C)Cc1csc(NC(=O)Nc2ccccc2C(C)(C)C)n1	0.3%	-2.9	.	.	.	1.4%	.
CN(Cc1ccccc1F)C(=O)CNC(=O)Cc1cccc2ccccc12	-1.8%	-0.8	-26.5%	-4.6%	.	0.6%	-0.5%
Cc1ccccc1CSc1nc2n(n1)C(c1cccs1)C1=C(CCCC1=O)N2 (stereo not drawn)	22.4µM*	0.1	-0.5%	-7.0%	2.3	0.9%	-22.9%
CCOCCCNC(=O)c1cn(C)c2ccc(S(=O)(=O)N3CCCCC3)cc2c1=O	-4.5%	-2.6	-47.0%[inhibitor]	-4.3%	.	-0.2%	18.9%
CCCN1CCN(CCCNC(=O)c2ccc3nc(N4CCC(C)CC4)sc3c2)CC1	?	-1.2	-18.1%	-3.0%	1.3	2.1%	-4.3%
N#C/C(=C/c1cn(-c2ccccc2)nc1-c1cccc(S(=O)(=O)N2CCOCC2)c1)C(=O)NCc1ccco1	61.6%	-0.3	-1.2%	13.4%	5.5	3.8%	14.7%
CCc1c(O)c(-c2ccccc2)c(=O)n(-c2ccccn2)c1-c1ccccc1	-1.1%	1.8	3.4%[15.4 µM]	-19.8%	-3.9	-2.3%	-15.3%
O=C(CCCCCN1C(=O)c2ccccc2C1=O)Nc1ccc(F)cc1	-1.3%	1.0	6.3%	?	-1.2	-0.2%	9.9%

Compounds were not picked by outcome. About 5.1% of those tested had a hit in this group.
